Bioassay records: PubChem BioAssay, several laboratories
UCH37 inh: human UCH37 deubiquitinating enzyme inhibition | purified proteasome/UCH37, Ub-AMC cleavage fluorescence | inhibition, % (test concentration not listed) | hit rate 0.33% among 330,000;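 active means mean of two replicates above 20%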;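 further: 0% = compound-free wells with enzyme and 100% = wells lacking proteasome; stock transfer was 100 nL into about 20 µL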
Target sequence (Q9Y5K5 whole entry, looked up): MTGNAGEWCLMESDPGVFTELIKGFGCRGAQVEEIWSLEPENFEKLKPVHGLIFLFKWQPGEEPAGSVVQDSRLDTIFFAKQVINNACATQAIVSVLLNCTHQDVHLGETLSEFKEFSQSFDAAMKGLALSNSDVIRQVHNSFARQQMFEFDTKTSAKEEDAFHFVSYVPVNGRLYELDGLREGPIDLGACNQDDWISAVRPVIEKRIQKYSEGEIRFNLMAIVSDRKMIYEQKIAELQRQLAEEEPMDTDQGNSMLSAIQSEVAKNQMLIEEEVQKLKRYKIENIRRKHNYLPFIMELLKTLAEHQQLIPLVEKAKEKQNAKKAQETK
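System: Proteasome-associated human UCH37 deubiquitinase; Input: 0.15 nM proteasome in added enzyme buffer; Also added: Ub-AMC substrate from 1 µM stock; Incubation: 30 min compound-proteasome preincubation then 25 min substrate reaction, room temperature; Detection: fluorescence, ex 355 nm, em 460 nm; Read-out: % inhibition of Ub-AMC cleavage fluorescence; Benchmarks: no-proteasome and no-compound wells.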
B2AR ag: activates human beta-2 adrenergic receptor causing internalization; P07550; hit rate 0.43% among 340,000; Am2.2-beta2AR cells, FAP receptor internalization, flow cytometry; reference of the scale not given here; response, % (no concentration beside the values); AID 504454;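 active means response above a set limit, near 3 SD of response in nonfluorescent compounds, cut at about 42% in these data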;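 further: stock transfer was 100 nL into about 11 µL; a reference agonist was the positive control; negative values mostly stem from fluorescent compounds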
Target sequence (P07550 whole entry, looked up): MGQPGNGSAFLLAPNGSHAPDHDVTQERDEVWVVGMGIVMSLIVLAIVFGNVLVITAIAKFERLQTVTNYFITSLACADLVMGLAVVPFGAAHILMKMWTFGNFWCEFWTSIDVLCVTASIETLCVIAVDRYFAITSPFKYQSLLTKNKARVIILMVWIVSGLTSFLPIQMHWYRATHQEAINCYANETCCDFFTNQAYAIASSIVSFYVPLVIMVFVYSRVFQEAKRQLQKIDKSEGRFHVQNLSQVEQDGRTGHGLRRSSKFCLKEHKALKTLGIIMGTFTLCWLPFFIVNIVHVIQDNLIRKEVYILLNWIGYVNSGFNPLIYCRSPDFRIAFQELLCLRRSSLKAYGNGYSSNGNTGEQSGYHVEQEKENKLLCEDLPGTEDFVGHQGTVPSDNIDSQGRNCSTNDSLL
HNF4A DNA FP: change in binding of human HNF4 alpha to DNA. HNF4a-FITC DNA binding, fluorescence polarization, 1 h. P41235. AID 1224865. hit rate 0.3% among 360,000. activity change, % at 10 µM; in the data active means activity change above about 30%, passing the limit was not always enough;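 further: controls were the assay level and a saturating level of protein; the project sought stronger binding though the title names inhibitors; some compounds called inactive have numbers as strong as hits; positive values seem to mean higher polarization but the record does not say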
Vif TR-FRET: HIV-1 Vif–A3G interaction blockers – biochemical, TR-FRET, GST-Vif 1-94, biotin-A3G peptide, dose response retest, primary screen (AID 1117319). TR-FRET GST-Vif / biotin-A3G peptide binding; higher % means a stronger effect; test concentration not given here; strong numbers were not always called active. one-dose inhibition, %; IC50 in µM for titrated hits. hit rate 0.57% among 260,000;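 active means above the screen mean plus three standard deviations and confirmed in dose response; inconclusive means results disagree or hit not tested in dose response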;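 further: Vif residues 1-94 fused to GST binding biotinylated APOBEC3G peptide 110-148; 0% = full assay without inhibitor and 100% = GST in place of GST-Vif; retest series ran down from 100 µM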
LANA-H2B inh: blocks KSHV LANA binding to histone H2A/H2B; Q9QR71; cell-free LANA-H2A/H2B peptide, fluorescence polarization; hit rate 0.6% among 320,000; AID 2629; inhibition, % (no concentration beside the values); in the data active means inhibition mostly above about 10%, no sharp cut-off; inactive means mostly below about 6.7%;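 further: stock transfer was 7.5 nL into about 10 µL; 0% = median of vehicle wells and 100% = median of positive control wells; one replicate is shown; the record names a cut of 25% in any replicate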
Bfl-1 A1 inh: inhibitors of the anti-apoptotic protein A1, read as caspase activation; MEF A1-2A-BIM cells, Caspase-Glo 3/7 luminescence, 3 h; percent of clofoctol response, vehicle zero; caspase activation, % (test concentration not listed); hit rate 0.066% among 330,000; AID 2462;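 active means over half of replicate activation scores above 10%, or exactly half above 10 with the replicate mean above 10; inconclusive means replicate mean below 10 yet half the replicates above 10; inactive means over half of replicates below 10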;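 further: wells of about 30 µL received 50 nL stock; many hits fall short of the cut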
E coli growth: blocks Escherichia coli growth; OD600, 23 h; hits give low values; OD600 absorbance (concentration not given with the values); hit rate 0.21% among 330,000;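 active means OD600 absorbance below the run mean of sample wells minus 3.6 SD, in any replicate, cut at about 0.56 in these data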;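 further: stock transfer was 300 nL into about 60 µL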
An asterisk follows results filed as active; ? = inconclusive; . = no result given.

mol	UCH37 inh	B2AR ag	HNF4A DNA FP	Vif TR-FRET	LANA-H2B inh	Bfl-1 A1 inh	E coli growth
Cc1ccc(NC(=O)C23CCC(C)(C(=O)[C@H]2Br)C3(C)C)cc1 (stereo partly drawn)	3.5	-3	1.4	5%	-5.3	0.3	0.61
O=c1c(Cl)c(N2CCN(S(=O)(=O)c3ccccc3)CC2)cnn1-c1ccccc1	0.9	3	0.0	-10%	-1.9	-0.3	0.72
Cc1ccc(CC(=O)NCCC(=O)O)cc1	1.9	10	1.4	-3%	-4.0	0.4	0.7
Cc1cc(C)c(S(=O)(=O)N(C)CC(=O)NCc2cccnc2)c(C)c1	4.7	-11	-2.8	-4%	10	0.3	0.69
COC(=O)c1ccc(S(=O)(=O)NCc2ccco2)n1C	4.3	3	2.6	9%	1.7	0.5	0.67
Cc1ccc2[nH]c(CN3CCN(C)C(CCO)C3)c(C)c2c1 (stereo not drawn)	-4.5	3	-0.4	.	-0.3	1.0	0.67
COc1cc(C(=O)Nc2c(C)cc(C)cc2C)c(Br)c(OC)c1OC	0.4	-1	0.0	2%	-2.4	-0.1	0.72
COC(=O)c1ccc(/C=N/OCC(=O)NCc2ccc(F)cc2)cc1	.	5	-2.7	10%	1.0	-0.4	.
CC1CCC(NC(=O)C2CCN(c3c4c(nc5ncnn35)CCC4)CC2)CC1 (stereo not drawn)	3.2	-5	0.0	.	-5.1	-1.2	0.68
COc1cccc(/C=N/NC(=O)c2c(C)nc3ccc(Br)cn23)c1O	.	6	4.3	13%	-3.6	-0.5	.
CCOc1cccc(OCCCOc2ccccc2)c1	-0.4	-1	-0.3	24%	-0.1	-0.2	0.75
Fc1ccc2c(c1)C1C=CCC1C(c1cc3c(cc1Br)OCO3)N2 (stereo not drawn)	3.8	7	-4.7	2%	-0.6	-0.5	0.74
CN1CC=C2C(C#N)=C(N)C(C#N)(C#N)C(c3ccsc3)C2C1 (stereo not drawn)	-9.9	8	-102	19%	9.6	1.3	0.77
CC(Sc1nnc(Cc2ccccc2)n1C)C(=O)NC1CC1 (stereo not drawn)	3.3	0	1.7	-9%	.	.	0.7
O=C(O)C1=C(C(=O)Nc2cc(C(F)(F)F)ccc2Cl)CCCC1	4.9	6	5.1	?	-1.9	0.4	0.73
Cc1nnc2c(NCC(C)c3ccccc3)nc3ccccc3n12 (stereo not drawn)	-83	-29	0.7	-17%	-1.5	0.0	0.72
O=C(NCCN1CCOCC1)c1ccc(Cl)c(S(=O)(=O)N2CCOCC2)c1	0.5	4	-0.5	.	-2.9	1.8	0.69
COc1cc(OC)c2c(-c3ccccc3)cc(=O)oc2c1C(CC(=O)N1CCOCC1)c1ccc(N(C)C)cc1 (stereo not drawn)	1.5	4	-3.3	5%	2.2	0.4	0.7
COCCCN(CCNC(=O)c1ccc(NC2=NC3CS(=O)(=O)CC3S2)cc1)Cc1ccco1 (stereo not drawn)	3.4	7	0.6	.	2.8	0.1	0.73
Cc1ccn(CCC(=O)N2CCc3ccccc32)n1	0.8	3	-1.1	11%	-0.4	-2.0	0.71
CC1Cc2cc(/C(O)=C3/C(=O)C(=O)N(CCCn4ccnc4)C3c3ccc(F)cc3)ccc2O1 (stereo not drawn)	9.2	-2	-3.1	.	0.6	0.0	0.68
O=C(NC(=S)Nc1ccccc1F)c1ccc(Br)o1	-1.6	3	0.6	7%	-3.9	-1.7	0.71
Cc1[nH]c2ccccc2c1/C=N/NC(=O)c1cc(C(C)(C)C)[nH]n1	.	6	1.6	-4%	0.2	?	.
Cc1cc2[nH]c(=O)c(=O)[nH]c2cc1S(=O)(=O)N1CCN(c2cccc(Cl)c2)CC1	5.5	1	-4.5	2%	-1.8	0.4	0.76
CCC(C)Cn1c(C)nc2ccccc21 (stereo not drawn)	1.5	0	-0.7	4%	3.4	0.3	0.68
Cc1cccc(/C=N/NC(=O)c2ccc3c(c2)OCCO3)c1O	.	16	-4.0	.	5.1	1.6	.
Cc1ccc(SCC(=O)c2ccc(CC(=O)O)s2)cc1	.	-4	2.0	?	-6.4	-0.6	.
O=C(NCCS(=O)(=O)NC1CCCC1)c1ccccc1	1.6	-4	-0.1	0%	-3.5	0.8	0.65
COc1ccc(C(=O)N2CCN(C(=O)C3COc4ccccc4O3)CC2)cc1OC (stereo not drawn)	3.7	4	-0.9	.	0.5	-0.8	0.68
O=C(O)c1cnnc2ccccc12	6.7	1	-0.3	-2%	.	.	0.69

Next section:
mol	UCH37 inh	B2AR ag	HNF4A DNA FP	Vif TR-FRET	LANA-H2B inh	Bfl-1 A1 inh	E coli growth
Cc1nnc(Sc2cc(C(=O)NCCCN(C)Cc3ccccc3)c3ccccc3n2)s1	-2.4	-38	0.8	15%	3.6	0.7	0.73
O=C(O)c1ccc(N/N=C/C=C/c2ccccc2[N+](=O)[O-])cc1	.	1	4.5	.	-4.1	-5.3	.
C=CCC1Cc2c(Br)cccc2C(CC=C)N1 (stereo not drawn)	5.5	-2	5.4	.	0.5	-1.0	0.7
Cc1ccc(NC(=O)c2ccccc2N(C)S(=O)(=O)c2ccccc2)c(C)c1	1.1	0	-0.4	0%	-0.8	-0.7	0.69
COc1ccccc1NC(=O)Nc1ccc(Br)cn1	0.1	16	3.1	1%	2.4	0.4	0.78
O=C(CN1CCc2ccccc2C1)NCC(=O)Nc1ccc(F)cc1	4.5	2	0.0	-6%	-1.9	0.3	0.71
COC(=O)c1cc(C(=O)NNC(=O)c2ccc3c(c2)OCO3)cc([N+](=O)[O-])c1	6.2	5	-6.5	-9%	4.1	0.5	0.69
Cc1cccc(OCC(=O)N/N=C/C=C/c2ccco2)c1	.	7	-0.5	?	4.8	0.4	.
COc1cccc(-c2cc(C(=O)N3CCc4ccccc4C3)[nH]n2)c1	.	4	2.6	.	1.1	2.1	.
CC1(C)C2CCC(C2)C1(C)NC(=O)CNC1CCCCC1 (stereo not drawn)	2.8	-13	1.3	5%	1.0	1.2	0.64
CCN1CCN(c2ncc(C(=O)Nc3cc(Cl)ccc3OC)c3ccccc23)CC1	4.4	19	-1.2	6%	1.8	0.1	0.72
O=C(NNc1ccc(Cl)cc1)c1c(F)cccc1Cl	5.7	-7	-3.3	-5%	-0.5	0.7	0.66
COc1cc(/C=C2/CCC/C(=C\c3cc(O)c(OC)c(Cl)c3)C2=O)cc(Cl)c1O	5.0	-5	15	8%	8.1	0.6	0.7
CCN(C(=O)CSc1nc(N)cc(N)n1)C1CCS(=O)(=O)C1 (stereo not drawn)	-2.1	3	3.3	.	-5.3	-1.2	0.65
CCc1cccc(NC(=O)C2CCCN(S(=O)(=O)c3cnc[nH]3)C2)c1 (stereo not drawn)	5.5	5	-0.3	2%	-2.2	-0.9	0.68
CCOc1ccc(C(=O)NCC(=O)OCCCC(=O)c2ccc(F)cc2)cc1OCC	2.7	-3	0.0	.	-0.4	-0.4	0.7
Cc1ccc(C)c(NS(=O)(=O)c2cc(C(=O)NCCSC3CCCCC3)ccc2C)c1	5.4	3	4.3	-3%	3.7	-0.2	0.73
COCCCNS(=O)(=O)c1ccc2[nH]c3c(c2c1)CCCCC3	-5.2	4	-0.6	-4%	-0.7	0.3	0.67
CC1CCN(c2ccc(NC(=S)NC(=O)c3ccco3)cc2)CC1	3.9	-4	0.8	9%	-5.1	1.3	0.66
O=C(C1=C[C@@H](c2ccc(C(F)(F)F)cc2)C[C@@H](OCCCCO)O1)N1CCN(Cc2ccccc2)CC1	3.1	4	6.1	-3%	-8.0	-1.2	.
COC(=O)c1ccc(C(=O)OC)c(NC(=S)N2CCCCC2C)c1 (stereo not drawn)	-1.3	5	3.9	.	1.1	0.9	.
CCOC(=O)CC(=O)Nc1ccn[nH]1	1.3	-3	1.1	.	1.2	-0.5	0.69
O=C(OCc1ccccc1)N1CCC2CC1c1cc(NCCc3ccccc3)ccc12 (stereo not drawn)	.	2	-1.4	-5%	.	.	.
CC(C)OC(=O)c1ccc(COC(=O)c2cnccn2)cc1	3.4	1	4.9	.	-2.3	0.2	0.7
COc1cc(NC(=O)CN2C(=O)NC3(CCOc4ccccc43)C2=O)cc(OC)c1 (stereo not drawn)	-0.3	-2	2.9	-2%	-3.0	-0.6	0.66
O=C(/C=C/c1ccccc1)NCC(=O)N/N=C/c1cccs1	.	-4	-2.3	.	3.2	0.7	.
Nc1nc(CSC(=S)N2CCOCC2)nc(Nc2ccc(F)cc2)n1	.	-3	3.6	31%	-5.9	0.5	.
CCNc1nc(NC(C)C)nc(N(C#N)Cc2ccccc2)n1	2.6	-8	0.4	-5%	3.8	0.1	0.72
O=C1[C@@H]2Cc3c([nH]c4ccccc34)C(c3cccc([N+](=O)[O-])c3)N2C(=O)CN1C1CCN(Cc2ccccc2)CC1 (stereo partly drawn)	.	30	2.2	.	-0.4	-0.2	.
O=C1c2ccccc2NC(c2ccco2)N1NS(=O)(=O)c1ccccc1 (stereo not drawn)	-104	1	2.5	0%	1.6	1.2	0.68

(list continues)
mol	UCH37 inh	B2AR ag	HNF4A DNA FP	Vif TR-FRET	LANA-H2B inh	Bfl-1 A1 inh	E coli growth
O=C(O)c1cc(N/N=C/C=C/c2ccccc2[N+](=O)[O-])ccc1Cl	.	-2	-0.8	.	0.2	-5.7	.
Cc1cc(C)n(CC(=O)c2ccc(Cl)cc2)n1	0.4	-6	0.1	.	0.2	-0.6	0.69
CCOc1ccc(CCN2CN(C3CCCCC3)CNC2=S)cc1OCC	2.2	-4	0.1	-14%	-0.2	-1.7	0.66
CCOc1ccc(N(CC(=O)N2CCN(Cc3ccccc3)CC2)S(C)(=O)=O)cc1	2.8	-21	-5.3	5%	-0.6	1.7	0.7
Cc1ccc(NC(=O)Cn2nc(C)cc2C)cc1	1.0	-8	-1.6	-2%	-0.6	0.1	0.68
COc1cc(CN2CCc3ccc(NC(=O)CCc4ccccc4OC)cc3C2)ccc1O	2.8	-3	-0.2	0%	0.0	0.4	0.71
CCCCOc1ccc(C(=O)OCC(=O)N2CCOCC2)cc1	3.1	-14	3.0	.	0.1	-0.5	0.62
